NOMO-1 viab – STK33 inhibitor candidate reducing NOMO-1 cell viability; inhibition, % (concentration not given with the values); 37,000 compounds, 7.5% hits; NOMO-1 AML viability, CellTiter-Glo luminescence, 72 h;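 active means most replicates above 80%; inconclusive means exactly half above 80%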;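 further: wells of about 30 µL received 25 nL stock; 0% = median of vehicle wells and 100% = reference inhibitor level; the first replicate is given; inactives centre near 10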
* = called active by the depositor; ? = inconclusive. Not all compounds are listed; rates above refer to the full screens.

SMILES	NOMO-1 viab
C[C@H](NC[C@H](O)CP(=O)(O)Cc1ccccc1)c1ccc(Cl)c(Cl)c1	27
C[C@H](CO)N1C[C@H](C)[C@H](CN(C)C(=O)Nc2cccc3ccccc23)Oc2ccc(NC(=O)Nc3ccc(F)cc3)cc2CC1=O	21
C[C@H]1CN([C@@H](C)CO)C(=O)c2cccc(NS(=O)(=O)c3ccc(F)cc3)c2O[C@@H]1CN(C)C(=O)Nc1ccc(C(F)(F)F)cc1	-1
CCNS(=O)(=O)c1cc(-c2nnc(Nc3ccc(F)cc3)c3ccccc23)ccc1C	?
Cc1cc(Cl)ccc1NC(=O)CN(C)S(=O)(=O)c1ccc(F)cc1	-6
C[C@H]1CN([C@@H](C)CO)C(=O)Cc2cc(NC(=O)CCC(F)(F)F)ccc2O[C@@H]1CN(C)Cc1ccc(Cl)c(Cl)c1	14
CC1=CC(=O)C2C(C)(C)CCC[C@]2(C)[C@@]1(O)CCc1ccoc1 (stereo partly specified)	96*
O=c1c2ccccc2nc(SCc2cccc3nsnc23)n1-c1ccccc1	53
Cc1noc(C)c1S(=O)(=O)Nc1ccc2c(c1)C(=O)N([C@@H](C)CO)C[C@@H](C)[C@H](CN(C)S(C)(=O)=O)O2	9
CC(Oc1ccc(C(=O)NC2CCCCC2)cc1)C(=O)Nc1ccccc1C(F)(F)F (stereo unspecified)	13
C=CCn1cc(C=C2C(=O)N(C)C(=S)N(C)C2=O)c2ccccc21	24
O=C(CSc1nc2ccccc2o1)Nc1ccc(N2CCOCC2)c(Cl)c1	10
C[C@H](CO)N1C[C@H](C)[C@H](CN(C)S(=O)(=O)c2cn(C)cn2)Oc2ccc(NC(=O)Nc3cccc4ccccc34)cc2CC1=O	-2
C[C@@H]1CN([C@H](C)CO)C(=O)c2cc(NC(=O)Nc3cccc4ccccc34)ccc2O[C@@H]1CN(C)S(=O)(=O)c1cccs1	-4
C[C@@H]1CN([C@H](C)CO)C(=O)c2cc(N(C)C)ccc2O[C@@H]1CN(C)Cc1ccc(C(=O)O)cc1	22
Cc1ccc(NC(=O)Cc2n[nH]c(=S)n2C)cc1	19
COc1cc(C2Nc3ccccc3S2)cc(OC)c1OC (stereo unspecified)	75
Cc1ccc(S(=O)(=O)N(C)C[C@H]2Oc3ccc(NC(=O)NC(C)C)cc3C(=O)N([C@@H](C)CO)C[C@@H]2C)cc1	-3
Cc1noc(C)c1S(=O)(=O)N(C)C[C@@H]1Oc2ccc(NS(=O)(=O)c3ccccc3)cc2CC(=O)N([C@@H](C)CO)C[C@@H]1C	6
COc1ccc(CN(C)C[C@H]2Oc3c(NC(=O)C4CCOCC4)cccc3C(=O)N([C@H](C)CO)C[C@@H]2C)cc1	-6

An excerpt of these results, bar-delimited.
compound | NOMO-1 viab
COc1cc(C2Nc3ccccc3S2)cc(OC)c1OC (stereo unspecified) | 75
C[C@H]1CN([C@@H](C)CO)C(=O)Cc2cc(NC(=O)CCC(F)(F)F)ccc2O[C@@H]1CN(C)Cc1ccc(Cl)c(Cl)c1 | 14
C=CCn1cc(C=C2C(=O)N(C)C(=S)N(C)C2=O)c2ccccc21 | 24
COc1ccc(CN(C)C[C@H]2Oc3c(NC(=O)C4CCOCC4)cccc3C(=O)N([C@H](C)CO)C[C@@H]2C)cc1 | -6
Cc1cc(Cl)ccc1NC(=O)CN(C)S(=O)(=O)c1ccc(F)cc1 | -6
C[C@@H]1CN([C@H](C)CO)C(=O)c2cc(NC(=O)Nc3cccc4ccccc34)ccc2O[C@@H]1CN(C)S(=O)(=O)c1cccs1 | -4
O=C(CSc1nc2ccccc2o1)Nc1ccc(N2CCOCC2)c(Cl)c1 | 10

The listing continues:
SMILES	NOMO-1 viab
C[C@H]1CN([C@@H](C)CO)C(=O)c2cccc(NS(=O)(=O)c3cn(C)cn3)c2O[C@H]1CN(C)C(=O)Nc1ccccc1	17
CCOC(=O)c1sc(NC(=O)CSc2nc3c(c(C(F)(F)F)n2)CCCC3)c(C#N)c1C	33
Cc1nc(SCC(=O)Nc2c(C)cccc2C)n[nH]1	10
C[C@@H]1CN([C@@H](C)CO)C(=O)c2cc(N(C)C)ccc2O[C@H]1CN(C)S(=O)(=O)c1ccc(Cl)cc1	16
C[C@@H]1CN([C@H](C)CO)C(=O)Cc2cc(NS(=O)(=O)c3ccccc3)ccc2O[C@H]1CN(C)CC1CC1	4
CCC(C)[C@@H](CO[C@@H](Cc1ccccc1)C(=O)N[C@@H](CCS(C)(=O)=O)C(=O)OC(C)C)NC[C@@H](N)CS (stereo partly specified)	55
CCOc1ccccc1NC(=O)COc1cc(N2CCOCC2)c2ccccc2c1Cl	0
C[C@@H]1CN([C@@H](C)CO)C(=O)Cc2cc(NC(=O)C3CC3)ccc2O[C@@H]1CN(C)Cc1ccc(Oc2ccccc2)cc1	32
Cc1cc(C(=O)Nc2cccc3c2O[C@@H](CN(C)C(=O)Nc2cccc4ccccc24)[C@@H](C)CN([C@H](C)CO)C3=O)n(C)n1	5
CC1=CC(C)(C)N(S(=O)(=O)c2ccc(C)cc2)c2ccccc21	111*
O=c1cc(O)c2sc3nc(-c4cccnc4)c4c(c3c2[nH]1)CCCC4	106*
COc1ccccc1C(=O)N(Cc1nnc2c3ccccc3c(C)nn12)c1ccccc1	12
C[C@H](CO)N1C[C@H](C)[C@H](CN(C)Cc2ccc(-c3ccccc3)cc2)Oc2ccc(NC(=O)Cc3ccccc3)cc2CC1=O	68
CC(C)NC(=O)Nc1ccc2c(c1)C(=O)N([C@H](C)CO)C[C@H](C)[C@@H](CN(C)C(=O)NC1CCCCC1)O2	11
Cc1ccc(S(=O)(=O)Nc2ccc3c(c2)CC(=O)N([C@H](C)CO)C[C@@H](C)[C@H](CN(C)C(=O)NC(C)C)O3)cc1	3
Cc1nn(Cc2nc(C(C)(C)C)cs2)c(C)c1Br	3
CNC[C@@H]1Oc2ccc(NS(=O)(=O)c3c(C)noc3C)cc2CC(=O)N([C@@H](C)CO)C[C@@H]1C	-7
C[C@H]1CN([C@@H](C)CO)C(=O)c2cccc(NC(=O)c3nc4ccccc4s3)c2O[C@H]1CN(C)Cc1ccc(Oc2ccccc2)cc1	47
CCc1cc(C(=O)OC)c(NC(=O)CC2Sc3ccc(C(F)(F)F)cc3NC2=O)s1 (stereo unspecified)	43
Cc1c(Br)c([N+](=O)[O-])nn1CC(=O)Nc1cccnc1	-7
O=C(c1c[nH]c2ccccc12)C(O)C(c1ccccc1)N1CCOCC1 (stereo unspecified)	-18
CC(=O)Nc1ccc(C(=O)Nc2ccc(OCC(=O)O)cc2)cc1	-4
CCn1c(SCC(=O)Nc2ccc(C(C)=O)cc2)nc2nc3c(cc2c1=O)CCCC3	16
Cc1ccc(S(=O)(=O)N(C)C[C@@H]2Oc3ccc(NC(=O)CCCCCC(=O)Nc4ccccc4N)cc3C(=O)N([C@@H](C)CO)C[C@@H]2C)cc1	4
C[C@@H]1CN([C@H](C)CO)C(=O)c2cccc(NC(=O)c3ccc(-c4nccs4)cc3)c2O[C@@H]1CN(C)CC1CCCCC1	2
c1cncc(C2OCC3(CO2)COC(c2cccnc2)OC3)c1 (stereo unspecified)	-25
O=C(COc1ccccc1[N+](=O)[O-])Nc1ccc2oc(-c3ccc(Cl)cc3)nc2c1	-2
C[C@@H]1CN([C@H](C)CO)C(=O)Cc2cc(NS(=O)(=O)c3ccc(F)cc3)ccc2O[C@H]1CN(C)S(=O)(=O)c1ccc(Cl)cc1	-2
CC(C)c1ccccc1OCC(=O)Nc1sc2c(c1C(N)=O)CCCC2	30
C[C@@H]1CN([C@@H](C)CO)C(=O)c2cccc(NC(=O)C3CCCCC3)c2O[C@@H]1CN(C)Cc1ccccc1	15
COC(=O)c1cccc(-n2c(CCC(=O)O)ccc2-c2ccc(C)cc2)c1	26
C[C@@H]1CN([C@@H](C)CO)C(=O)c2cc(N(C)C)ccc2O[C@H]1CN(C)S(=O)(=O)c1cccs1	20
C[C@H]1CN([C@@H](C)CO)C(=O)Cc2cc(NC(=O)C3CCCCC3)ccc2O[C@@H]1CN(C)Cc1ccncc1	0
C[C@H]1CN([C@@H](C)CO)C(=O)Cc2cc(NC(=O)CCN3CCOCC3)ccc2O[C@H]1CN(C)Cc1ccc(C(F)(F)F)cc1	-4
C[C@H](CO)N1C[C@H](C)[C@H](CN(C)S(=O)(=O)c2ccc(Cl)cc2)Oc2ccc(NC(=O)Nc3ccccc3)cc2C1=O	21
CC(C)NC(=O)Nc1cccc2c1O[C@@H](CN(C)Cc1ccc(C(F)(F)F)cc1)[C@@H](C)CN([C@@H](C)CO)C2=O	17
C[C@@H]1CN([C@@H](C)CO)C(=O)Cc2cc(NC(=O)Nc3ccc4c(c3)OCO4)ccc2O[C@@H]1CN(C)S(=O)(=O)c1ccc(Cl)cc1	31
CC(C)NC(=O)Nc1ccc2c(c1)C(=O)N([C@H](C)CO)C[C@H](C)[C@@H](CN(C)Cc1ccccc1)OCCCC[C@@H](C)O2	4
C[C@H]1CN([C@@H](C)CO)C(=O)c2cc(NC(=O)Nc3ccc(F)cc3)ccc2O[C@@H]1CN(C)CC1CCCCC1	0
C[C@H]1CN([C@@H](C)CO)C(=O)c2cc(NC(=O)Nc3ccc4c(c3)OCO4)ccc2O[C@@H]1CN(C)Cc1ccccc1	0
COc1ccc(C(NC(C)=O)c2ccc3cccnc3c2O)cc1OC (stereo unspecified)	107*
Cc1noc(C)c1NC(=O)N(C)C[C@H]1Oc2c(NC(=O)C3CCCCC3)cccc2C(=O)N([C@H](C)CO)C[C@@H]1C	5
COc1ccc(CC(=O)Nc2ccc(S(N)(=O)=O)cc2)cc1OC	11
Cc1ccccc1-c1nc(SCC(=O)c2cccc([N+](=O)[O-])c2)n[nH]1	13
CCOC(=O)c1sc(SCc2ccccc2)c(S(=O)(=O)C(C)C)c1-n1cccc1	42
O=C(CSc1nnnn1-c1ccccc1)Nc1cc(Cl)cc(Cl)c1	-32
C[C@@H]1CN([C@@H](C)CO)C(=O)c2cccc(NC(=O)C3CCOCC3)c2O[C@@H]1CN(C)S(C)(=O)=O	-15
O=C(O)CCC(=O)Nc1ccc(Br)c2cccnc12	8
CCOC(=O)c1ccc2nc(C(F)(F)F)nc(N3CC(C)OC(C)C3)c2c1 (stereo unspecified)	17
CNC[C@H]1Oc2c(NC(=O)Nc3ccc(F)cc3)cccc2C(=O)N([C@H](C)CO)C[C@@H]1C	-1
CCC(=O)c1ccc(OC)cc1OC	14
c1cn2c3c(n1)CCCc3c1cc(C3CCCCC3)ccc12	123*
Cc1ccc(S(=O)(=O)N(C)C[C@@H]2Oc3ccc(NS(=O)(=O)c4cn(C)cn4)cc3CC(=O)N([C@H](C)CO)C[C@@H]2C)cc1	9
Cc1ccc(S(=O)(=O)N(C)C[C@@H]2Oc3c(NC(=O)C4CCCCC4)cccc3C(=O)N([C@H](C)CO)C[C@@H]2C)cc1	35
Cc1cc(NC(=O)CSc2nnc(-c3ccccc3Cl)n2C)ccc1Br	32
C[C@H](CO)N1C[C@H](C)[C@@H](CN(C)Cc2ccc(C(=O)O)cc2)Oc2c(NC(=O)c3ccc(-c4nccs4)cc3)cccc2C1=O	13
COc1ccc(NC(=O)CN(C)S(=O)(=O)c2ccccc2)cc1OC	5
NC(=O)c1nnc2ccc(Cl)cc2c1N	34
COc1ccc(CN(C)C[C@H]2Oc3ccc(NC(=O)CCN4CCOCC4)cc3C(=O)N([C@H](C)CO)C[C@@H]2C)cc1	-10
COc1ccc(OC)c(NS(=O)(=O)c2ccc(NC(=O)C3COc4ccccc4O3)cc2)c1 (stereo unspecified)	35

Continued, overlapping the part above by two compounds.
SMILES	NOMO-1 viab
COc1ccc(CN(C)C[C@H]2Oc3ccc(NC(=O)CCN4CCOCC4)cc3C(=O)N([C@H](C)CO)C[C@@H]2C)cc1	-10
COc1ccc(OC)c(NS(=O)(=O)c2ccc(NC(=O)C3COc4ccccc4O3)cc2)c1 (stereo unspecified)	35
N#Cc1c(F)cccc1NCCc1ccccn1	44
COC(=O)CSc1nnc(-c2ccccc2)o1	-6
CC(=O)Oc1ccc2c(c1OC(C)=O)OCC1(O)Cc3c(cc(OC(C)=O)c(OC(C)=O)c3OC(C)=O)C21 (stereo unspecified)	33
Cc1cc(C(F)(F)F)nc2c(Br)c(C(C)(C)C)nn12	49
Cc1ccc(S(=O)(=O)N(C)C[C@@H]2Oc3ccc(NS(=O)(=O)c4cn(C)cn4)cc3C(=O)N([C@@H](C)CO)C[C@@H]2C)cc1	-19
C[C@@H]1CN([C@H](C)CO)C(=O)Cc2cc(NC(=O)Cc3cn(C)c4ccccc34)ccc2O[C@H]1CN(C)Cc1ccc(C(F)(F)F)cc1	133*
C[C@@H]1CN([C@@H](C)CO)C(=O)c2cccc(NC(=O)Nc3ccccc3)c2O[C@H]1CN(C)Cc1ccccc1	117*
CS(=O)(=O)N(CC(=O)Nc1ccccc1C(=O)N1CCOCC1)c1cccc(Cl)c1Cl	15
C[C@@H]1CN([C@H](C)CO)C(=O)Cc2cc(NC(=O)CCN3CCOCC3)ccc2O[C@@H]1CN(C)C(=O)Nc1ccc(C(F)(F)F)cc1	28
COc1ccc(NC(=O)N(C)C[C@@H]2Oc3c(NC(=O)c4cnccn4)cccc3C(=O)N([C@H](C)CO)C[C@H]2C)cc1	3
Cc1ccc(S(=O)(=O)N2CCCC2C(=O)Nc2ccc(O)cc2)cc1 (stereo unspecified)	-3
C[C@@H]1CN([C@@H](C)CO)C(=O)c2cc(NC(=O)C3CC3)ccc2O[C@@H]1CN(C)Cc1ccc(Oc2ccccc2)cc1	41
Cc1ccc(S(=O)(=O)N(C)C[C@@H]2Oc3ccc(NC(=O)CCCN(C)C)cc3C(=O)N([C@@H](C)CO)C[C@H]2C)cc1	-2
COc1ccc(NC(=O)Nc2ccc3c(c2)C(=O)N([C@H](C)CO)C[C@H](C)[C@@H](CN(C)Cc2ccccc2)O3)cc1	-5
